Source: PubChem BioAssay (Broad Institute)
Vaccinia stage = blocks a specific stage of Vaccinia orthopoxvirus infection. activity change (mCherry), % (test concentration not listed). AID 1053133. Vaccinia-infected cells, mCherry/Venus stage reporter fluorescence; hits give low values; some inactives read as strong as hits. 0.01% of 89,000 active;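 active means mCherry past -33% and 40 or more points under the early reporter, replicates agreeing; inconclusive means past -33% without that gap or agreement; tested in A549 cells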;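 further: scaled between vehicle wells and reference inhibitor wells; 23 nL library stock went into each well; one replicate is shown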
Vaccinia stage Venus = recorded beside Vaccinia stage, whose call it bears; activity change (Venus), %; measured here: Venus reporter, other viral stage;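 negative = less Venus signal; first of two replicates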
* = called active by the depositor; ? = inconclusive; / = no result given. These rows are one share of the data; count on the stated rates, not on these rows.

canonical_smiles | Vaccinia stage Venus | Vaccinia stage
COc1ccc(NC(=O)Nc2ccc3c(c2)CC(=O)N([C@@H](C)CO)C[C@@H](C)[C@@H](CN(C)C(=O)Nc2ccccc2)O3)cc1 | 10 | 18
CCCN(C)C[C@H]1OCCCC[C@@H](C)Oc2ccc(NS(=O)(=O)c3ccc(OC)cc3)cc2C(=O)N([C@H](C)CO)C[C@H]1C | / | ?
CC(C)NC(=O)N(C)C[C@H]1Oc2ccc(NC(=O)C3CCCCC3)cc2CC(=O)N([C@H](C)CO)C[C@H]1C | 6 | 7
O=C(C[C@H]1C=C[C@H](NC(=O)Cc2ccccn2)[C@H](CO)O1)NCCc1ccncc1 | 5 | -1
O=C(Nc1cccc(Cl)c1)N1C[C@H]2[C@@H](c3ccccc31)[C@H](CO)N2C(=O)C1CCCC1 | 0 | -1
O=C(NC1Cc2ccccc2C1)[C@H]1[C@H](CO)[C@H]2Cn3c(cccc3=O)[C@H]2N1C(=O)c1cnccn1 | 16 | 20
CC(C)NC(=O)Nc1cccc2c1O[C@@H](CN(C)Cc1ccc(-c3ccccc3)cc1)[C@@H](C)CN([C@H](C)CO)C2=O | -5 | -17
CCCC(=O)Nc1ccc2c(c1)C(=O)N(C)[C@@H]1CC[C@H](CC(=O)NCCc3ccncc3)O[C@H]1CO2 | 5 | 6
CN(C)C(=O)[C@H]1[C@H](CO)[C@H]2Cn3c(ccc(C4=CCCC4)c3=O)[C@@H]1N2C(=O)Nc1ccccc1 | 5 | 0
C[C@@H]1CN([C@@H](C)CO)C(=O)c2cc(-c3cccnc3)cnc2O[C@H]1CN(C)C(=O)Nc1ccc(C(F)(F)F)cc1 | 4 | 10
C[C@@H]1CCCCO[C@@H](CN(C)Cc2ccc(Cl)c(Cl)c2)[C@@H](C)CN([C@@H](C)CO)C(=O)c2cc(NC(=O)C3CCCCC3)ccc2O1 | / | ?
CC(C)CC#Cc1ccc2c(c1)O[C@H](CN(C)C(=O)C1CCCCC1)[C@H](C)CN([C@H](C)CO)S2(=O)=O | / | ?
Cc1ccc(S(=O)(=O)N[C@@H]2C=C[C@@H](CC(=O)NCCN3CCCCC3)O[C@@H]2CO)cc1 | 8 | 10
C[C@@H]1CN([C@@H](C)CO)C(=O)c2cc(N(C)C)ccc2O[C@@H](C)CCCCO[C@@H]1CN(C)C(=O)Nc1ccccc1 | 6 | 6
C[C@H]1CCCCO[C@@H](CN(C)C)[C@@H](C)CN([C@@H](C)CO)C(=O)c2cc(N(C)C)ccc2O1 | 1 | -1
COC(=O)[C@H]1[C@H](CO)[C@H]2Cn3c(ccc(C4=CCCCC4)c3=O)[C@@H]1N2C(=O)NC(C)C | 19 | 12
COc1ccc(S(=O)(=O)Nc2ccc3c(c2)C(=O)N([C@H](C)CO)C[C@H](C)[C@H](CN(C)C(=O)Nc2ccc(F)cc2)OCCCC[C@H](C)O3)cc1 | / | ?
COc1ccccc1-c1ccccc1[C@@H]1[C@H](C#N)N(C(=O)C2CCC2)[C@H]1CO | -3 | 5
C[C@@H]1CN([C@H](C)CO)C(=O)c2cc(NC(=O)C3CCCCC3)ccc2O[C@@H](C)CCCCO[C@H]1CN(C)C(=O)Nc1ccc(F)cc1 | -1 | -12
CN1C(=O)c2cc(NC(=O)Nc3cccc(Cl)c3)ccc2OC[C@H]2O[C@H](CC(=O)O)CC[C@@H]21 | 7 | 1
Cc1noc(C)c1S(=O)(=O)Nc1ccc2c(c1)C(=O)N([C@@H](C)CO)C[C@H](C)[C@@H](CN(C)Cc1ccncc1)OCCCC[C@H](C)O2 | 4 | 3
C[C@H]1CN([C@@H](C)CO)C(=O)Cc2cc(NC(=O)CCCCCC(=O)Nc3ccccc3N)ccc2O[C@H]1CN(C)Cc1ccc(C(F)(F)F)cc1 | / | ?
COCC#Cc1ccc2c(c1)O[C@H](CN(C)C(=O)c1ccccc1)[C@@H](C)CN([C@H](C)CO)S2(=O)=O | 11 | 8
CCCC(=O)Nc1ccc2c(c1)C(=O)N(C)[C@H]1CC[C@H](CC(=O)NCc3ccccc3)O[C@H]1CO2 | 1 | 0
COCC(=O)Nc1ccc2c(c1)C(=O)N(C)C[C@@H](OC)[C@@H](C)CN(CCC(F)(F)F)[C@@H](C)CO2 | 0 | 3
C[C@@H]1CCCCO[C@@H](CN(C)S(=O)(=O)c2ccccc2)[C@H](C)CN([C@@H](C)CO)C(=O)c2cc(NC(=O)c3ccncc3)ccc2O1 | -11 | -7
C[C@@H]1CN([C@@H](C)CO)C(=O)Cc2cc(NS(=O)(=O)c3ccc(Cl)cc3)ccc2O[C@@H]1CN(C)C(=O)Nc1ccc(F)cc1 | 20 | 23
C[C@@H]1CN([C@H](C)CO)C(=O)c2c(c3ccccc3n2C)-c2ccccc2CO[C@@H]1CN(C)C(=O)[C@@H]1CCCN1C | -8 | -8
CS(=O)(=O)Nc1ccc2c(c1)[C@H]1C[C@H](CC(=O)NCc3ccccc3)O[C@@H](CO)[C@H]1O2 | 1 | 3
C[C@H](CO)N1C[C@H](C)[C@H](CN(C)Cc2ccc(C(F)(F)F)cc2)OCc2cnnn2CCCC1=O | -7 | -22
C[C@H](CO)N1C[C@H](C)[C@H](CN(C)S(C)(=O)=O)Oc2c(NC(=O)Nc3ccc(F)cc3)cccc2C1=O | -8 | -15
O=C(c1ccccc1)N1CC[C@H]2[C@H](CO)Nc3ccc(-c4ccccc4F)cc3[C@H]21 | -6 | -2
CN1CCN(C(=O)C[C@H]2CC[C@H]3[C@@H](COC[C@H](O)CN3CC3CCCCC3)O2)CC1 | -5 | -7
COc1ccccc1-c1cn(CC[C@@H]2CC[C@H](NC(=O)c3ccccc3F)[C@H](CO)O2)nn1 | 2 | -5
O=C(Nc1cc(F)ccc1F)N1C[C@H]2[C@@H](c3ccccc31)[C@@H](CO)N2Cc1cccnc1 | 9 | 9
CCC(=O)N(C)C[C@@H]1Oc2ncc(-c3ccccc3OC)cc2C(=O)N([C@H](C)CO)C[C@@H]1C | 8 | 18
CCC(=O)N1CC(=O)N2[C@H](C1)[C@H](c1ccc(-c3cccc(C(=O)N(C)C)c3)cc1)[C@@H]2CO | 9 | 15
CC(C)NC(=O)N(C)C[C@@H]1Oc2ccc(NC(=O)Nc3ccccc3)cc2CC(=O)N([C@@H](C)CO)C[C@H]1C | -1 | 3
COCC#Cc1cnc2c(c1)C(=O)N([C@H](C)CO)C[C@@H](C)[C@H](CN(C)C(=O)CN1CCOCC1)O2 | 5 | 13
OC[C@@H]1Nc2ccc(C3=CCCCC3)cc2[C@@H]2[C@H]1CCN2Cc1nccs1 | -36 | -15
O=C(N[C@@H]1CC[C@H](CCn2cc(-c3ccc(F)cc3)nn2)O[C@@H]1CO)c1cnccn1 | 2 | -3
COCC(=O)N(C)C[C@@H]1Oc2cc(C#CCC(C)C)ccc2S(=O)(=O)N([C@@H](C)CO)C[C@H]1C | -3 | -3
CO[C@@H]1CN(C)C(=O)c2ccc(NS(=O)(=O)c3ccccc3C)cc2OC[C@H](C)N(C)C[C@@H]1C | -5 | 2
C[C@H](O)C#Cc1cnc2c(c1)C(=O)N([C@H](C)CO)C[C@H](C)[C@H](CN(C)C(=O)c1ccc(F)cc1)O2 | 14 | 26
CN1C(=O)c2cc(NC(=O)c3cccs3)ccc2OC[C@@H]2O[C@@H](CC(=O)NCC(F)(F)F)CC[C@@H]21 | -2 | -1
Cc1ccc(S(=O)(=O)N(C)C[C@H]2Oc3ncc(C#CC4(O)CCCC4)cc3C(=O)N([C@H](C)CO)C[C@@H]2C)cc1 | -17 | -25
Cc1noc(C)c1S(=O)(=O)N(C)C[C@H]1OCCCC[C@@H](C)Oc2ccc(NC(=O)C3CCCCC3)cc2C(=O)N([C@@H](C)CO)C[C@H]1C | -21 | -26
COCC(=O)Nc1ccc2c(c1)C(=O)N(C)C[C@H](OC)[C@@H](C)CN(C(=O)c1ccccc1F)[C@H](C)CO2 | 5 | 3
Cc1ccc(S(=O)(=O)Nc2ccc3c(c2)C(=O)N([C@H](C)CO)C[C@@H](C)[C@H](CN(C)Cc2ccc(C(=O)Nc4ccccc4N)cc2)O3)cc1 | 3 | 8
C[C@@H]1CCCCO[C@@H](CN(C)Cc2ccc(Cl)c(Cl)c2)[C@H](C)CN([C@@H](C)CO)C(=O)c2cc(NC(=O)Cc3ccccc3)ccc2O1 | / | ?
CCC(=O)N1[C@@H]2c3ccc(-c4cccnc4)c(=O)n3C[C@H]1[C@H](CO)[C@H]2C(=O)NC1CCC1 | 6 | 8
C[C@@H]1CCCCO[C@@H](CN(C)C(=O)Nc2ccc(F)cc2)[C@H](C)CN([C@@H](C)CO)C(=O)c2cc(NS(=O)(=O)c3cn(C)cn3)ccc2O1 | 16 | 20
CC(C)NC(=O)N(C)C[C@@H]1Oc2cc(C3=CCCC3)ccc2S(=O)(=O)N([C@@H](C)CO)C[C@@H]1C | -8 | -13
O=C(c1cnccn1)N1CC(=O)N2[C@@H](CO)[C@H](c3ccc(C#CC4CCCCC4)cc3)[C@@H]2C1 | 14 | 6
COC(=O)C[C@H]1CC[C@@H]2[C@H](COc3ccc(NC(=O)Nc4ccc(C)cc4)cc3C(=O)N2C)O1 | -3 | -6
COc1ccc(NC(=O)N[C@@H]2CC[C@H](CCNS(=O)(=O)c3cccc(Cl)c3)O[C@H]2CO)cc1 | -10 | -5
O=C(c1ccncc1)N1CC2(C1)[C@H](c1ccccc1)[C@@H](CO)N2CC1CCOCC1 | 6 | 7
COC(=O)C[C@H]1CC[C@H]2[C@H](COc3ccc(NC(=O)c4ccc(F)cc4)cc3C(=O)N2C)O1 | 0 | -8
O=C(C[C@H]1C[C@H]2c3cc(NC(=O)c4ccc5c(c4)OCO5)ccc3O[C@H]2[C@@H](CO)O1)NCc1ccccn1 | 11 | 15
CC(C)NC(=O)N(C)C[C@@H]1Oc2ncc(-c3cncnc3)cc2C(=O)N([C@@H](C)CO)C[C@@H]1C | 15 | 4

The listing continues.
canonical_smiles | Vaccinia stage Venus | Vaccinia stage
COc1ccc(S(=O)(=O)N(C)C[C@H]2OCCCC[C@@H](C)Oc3ccc(NS(=O)(=O)c4ccccc4)cc3C(=O)N([C@@H](C)CO)C[C@H]2C)cc1 | / | ?
Cc1ccc(S(=O)(=O)N(C)C[C@H]2OCCCC[C@@H](C)Oc3ccc(NC(=O)Nc4ccc(F)cc4)cc3C(=O)N([C@H](C)CO)C[C@@H]2C)cc1 | -6 | -5
CO[C@@H]1CN(C)C(=O)c2ccc(NC(=O)c3cnccn3)cc2OC[C@@H](C)N(C)C[C@@H]1C | 8 | 12
O=C([C@H]1[C@H](CO)[C@H]2Cn3c(ccc(/C=C/c4ccccc4)c3=O)[C@H]2N1CC1CC1)N1CCOCC1 | -16 | -33
CCNC(=O)C[C@@H]1CC[C@H]2[C@H](COc3ccc(NC(=O)Nc4ccc(C)cc4)cc3C(=O)N2C)O1 | 8 | 9
Cc1ccc(S(=O)(=O)N(C)C[C@@H]2OCCCC[C@H](C)Oc3ccc(NC(=O)NC4CCCCC4)cc3C(=O)N([C@H](C)CO)C[C@@H]2C)cc1 | / | ?
CCCC(=O)Nc1ccc2c(c1)OC[C@@H](C)N(Cc1nccs1)C[C@H](C)[C@H](OC)CN(C)C2=O | 5 | 9
COCC#Cc1ccc([C@@H]2[C@@H](CO)N3C(=O)CN(C(=O)C4CC4)C[C@H]23)cc1 | 10 | 12
C[C@@H]1CN([C@H](C)CO)C(=O)Cc2cc(NS(=O)(=O)c3cccs3)ccc2O[C@@H]1CN(C)S(C)(=O)=O | 6 | 3
COc1ccc(NC(=O)N(C)C[C@H]2Oc3c(NC(=O)NC(C)C)cccc3C(=O)N([C@@H](C)CO)C[C@H]2C)cc1 | 4 | 4
O=C(Nc1cccc(F)c1)N1CC(=O)N2[C@@H](CO)[C@H](c3ccc(-c4ccccc4)cc3)[C@@H]2C1 | 8 | 10
CCCC(=O)Nc1ccc2c(c1)C(=O)N(C)C[C@@H](OC)[C@@H](C)CN(C(=O)c1ccccc1F)[C@@H](C)CO2 | -2 | -3
C[C@@H]1CN([C@@H](C)CO)C(=O)Cc2cc(N(C)C)ccc2O[C@@H]1CN(C)S(=O)(=O)c1cccs1 | 14 | 9
COc1cccc(-c2ccc3n(c2=O)C[C@H]2[C@H](CO)[C@@H](C(=O)NCC4CC4)N(C(=O)NC(C)C)[C@@H]32)c1 | 1 | -5
CCCNC(=O)N1CC(=O)N2[C@H](CO)[C@H](c3ccc(C#Cc4cccc(F)c4)cc3)[C@@H]2C1 | 3 | 6
C[C@@H]1CN([C@H](C)CO)C(=O)c2cc(N(C)C)ccc2O[C@@H]1CN(C)Cc1ccc(C(=O)Nc2ccccc2N)cc1 | / | ?
C[C@@H]1CN([C@@H](C)CO)C(=O)c2cc(NC(=O)c3ccncc3)ccc2O[C@@H]1CN(C)Cc1ccc(C(=O)Nc2ccccc2N)cc1 | -2 | -10
O=C(Cc1ccccn1)N[C@H]1CC[C@H](CCn2cc(-c3cccnc3)nn2)O[C@H]1CO | 2 | 7

Reformatted as labelled records: 2 of the compounds above.
canonical_smiles: CCCNC(=O)N1CC(=O)N2[C@H](CO)[C@H](c3ccc(C#Cc4cccc(F)c4)cc3)[C@@H]2C1
- Vaccinia stage Venus = 3
- Vaccinia stage = 6
canonical_smiles: O=C([C@H]1[C@H](CO)[C@H]2Cn3c(ccc(/C=C/c4ccccc4)c3=O)[C@H]2N1CC1CC1)N1CCOCC1
- Vaccinia stage Venus = -16
- Vaccinia stage = -33

Full records as entered above:
CCCC(=O)Nc1ccc2c(c1)OC[C@@H](C)N(Cc1nccs1)C[C@H](C)[C@H](OC)CN(C)C2=O across the screens: Vaccinia stage Venus = 5; Vaccinia stage = 9
O=C(Nc1cccc(F)c1)N1CC(=O)N2[C@@H](CO)[C@H](c3ccc(-c4ccccc4)cc3)[C@@H]2C1 across the screens: Vaccinia stage Venus = 8; Vaccinia stage = 10
